High-throughput results: PubChem BioAssay, several laboratories
Beta apoptosis: inhibitors of cytokine-induced beta cell apoptosis, primary screen, luminescence; INS-1E cytokine-induced death, ATP luminescence, 48 h; percent of positive-control rescue, neutral wells zero; protection from apoptosis, % (no concentration beside the values); hit rate 0.8% among 300,000; AID 435005, 2010;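 active = all replicates at 75% or more, or half of them and the mean; inconclusive = half reach 75% but not the mean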;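 also: 0% = cytokine-treated negative control wells and 100% = positive control rescue; higher means more ATP so stronger rescue from cytokine killing; wells of about 40 µL received 100 nL stock; the first replicate is given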
AF4-AF9 inh: inhibitors of AF4 peptide binding to AF9, primary screen, biochemical, AlphaScreen, biotin-AF4 peptide, FLAG-AF9, single point; hit rate 0.47% among 350,000; inhibition, % at 10 µM;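 active = every replicate reaching a set inhibition limit, whatever the replicate mean, cut at about 25% in these data; inconclusive = mean inhibition reaches that limit but some replicates miss it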;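 also: 0% = plate neutral control median and 100% = total signal loss; the record names both 10 and 1 µM as test concentration; the first replicate is given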
Target sequence (P42568 whole entry, looked up): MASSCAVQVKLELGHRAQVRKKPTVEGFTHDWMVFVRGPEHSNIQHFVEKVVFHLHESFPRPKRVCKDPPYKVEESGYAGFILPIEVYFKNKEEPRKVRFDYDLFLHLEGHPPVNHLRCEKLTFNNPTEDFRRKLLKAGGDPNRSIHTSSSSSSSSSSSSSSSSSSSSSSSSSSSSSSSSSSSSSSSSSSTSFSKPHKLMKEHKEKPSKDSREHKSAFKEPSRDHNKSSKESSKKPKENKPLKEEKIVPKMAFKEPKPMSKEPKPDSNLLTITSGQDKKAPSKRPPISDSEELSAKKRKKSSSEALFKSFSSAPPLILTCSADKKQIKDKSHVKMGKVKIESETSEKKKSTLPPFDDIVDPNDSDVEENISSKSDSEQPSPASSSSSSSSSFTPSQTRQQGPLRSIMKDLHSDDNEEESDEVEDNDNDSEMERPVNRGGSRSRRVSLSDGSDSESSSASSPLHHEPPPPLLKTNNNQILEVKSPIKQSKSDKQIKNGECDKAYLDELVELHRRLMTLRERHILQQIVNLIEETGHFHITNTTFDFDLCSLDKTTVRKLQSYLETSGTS
Vif A3G: inhibitors of Vif binding to APOBEC3G peptide, primary screen, biochemical, TR-FRET, GST-Vif 1-94, biotin-A3G peptide, dose response retest (AID 1117319) | hit rate 0.57% among 260,000 | Virion infectivity factor (Human immunodeficiency virus type 1 group M subtype B (isolate … | one-dose inhibition, %; IC50 in µM for titrated hits | TR-FRET GST-Vif / biotin-A3G peptide binding; higher % means a stronger effect; test concentration not given here; strong numbers were not always called active;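 active = above the screen mean plus three standard deviations and confirmed in dose response; inconclusive = results disagree or hit not tested in dose response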;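 also: Vif residues 1-94 fused to GST binding biotinylated APOBEC3G peptide 110-148; 0% = full assay without inhibitor and 100% = GST in place of GST-Vif; retest series ran down from 100 µM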
RanGTP-Imp inh: inhibitors of RanGTP-importin-beta interaction, primary screen, biochemical, FRET, CFP-Ran, YFP-importin-beta, homogeneous | Ran GTPase (GTP-bound) - importin-beta complex | cell-free CFP-Ran/YFP-importin-beta FRET ratio | inhibition, % (concentration not given with the values) | hit rate 1.1% among 300,000 | AID 2216, 2009;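 active = most replicates above 15%; inconclusive = exactly half above 15%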;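 also: 0% = DMSO wells and 100% = Ran loaded with GDP instead of GTP; wells of about 40 µL received 100 nL stock; the first replicate is given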
Ecoli rRNA inh: reduced GFP signal of wild-type E. coli, primary screen, bacterial rRNA inhibitor project, GFP/RFP fluorescence, OD600, single point; E. coli WT GFP vs humanized-ribosome RFP mutants, 24 h; stronger effect = lower value; DMSO median 0, no signal -100; GFP signal change (wild-type ribosome), % (no concentration beside the values); hit rate 1.6% among 350,000; AID 720706, 2013;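 active = significant combined selectivity score with lowered wild-type GFP, culture density cut under 30%, mutant RFP and density less affected; inactive = any of these conditions unmet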; also: one replicate is shown; some compounds called inactive have numbers as strong as hits
Calb FLC: C. albicans growth inhibition with fluconazole, primary screen, CaCi-2 strain, Alamar Blue fluorescence; C. albicans CaCi-2 (fluconazole-resistant clinical isolate) + fluconazole, 48 h; growth inhibition, % (test concentration not listed); hit rate 0.57% among 300,000;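 active = most replicates above 75%; inconclusive = exactly half above 75%; inactive = most below 75%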;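 also: all wells also contain fluconazole at 8 µg/ml as a sub-toxic cotreatment; 0% = median of DMSO wells and 100% = median of geldanamycin control wells; wells of about 8 µL received 7.5 nL stock; the first replicate is given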
Bfl-1 A1 inh: caspase 3/7 activation in MEF A1-2A-BIM cells, primary screen, A1 inhibitor project, cell-based, luminescence, HTS; Caspase-Glo 3/7 luminescence, 3 h; percent of clofoctol response, vehicle zero; caspase activation, % (concentration not given with the values); hit rate 0.066% among 330,000; AID 2462, 2010;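 active = over half of replicate activation scores above 10%, or exactly half above 10 with the replicate mean above 10; inconclusive = replicate mean below 10 yet half the replicates above 10; inactive = over half of replicates below 10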;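 also: wells of about 30 µL received 50 nL stock; many hits fall short of the cut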
T cruzi repl: inhibitors of intracellular T. cruzi growth, primary screen, luminescence, NIH3T3 host cells | inhibition, % (no concentration beside the values) | T. cruzi beta-gal in NIH3T3, 90 h | hit rate 1.4% among 300,000;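 active = mean inhibition across valid replicates above about 55%, limit read from the data; inconclusive = mean below that limit but half or more replicates reach it; inactive = mean below it, under half of replicates reach it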;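 also: signal also drops with host cell toxicity which is not excluded here; 0% = plate median of DMSO wells and 100% = zero luminescence signal; higher percent means less beta-gal luminescence so fewer parasites; stock transfer was 50 nL into about 50 µL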
Ecoli rRNA inh OD600: also measured in Ecoli rRNA inh; calls as there; OD600 change, %; measured here: OD600 growth;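 optical density of the mix in the first replicate; 0 = DMSO median and -100 = no signal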
Ecoli rRNA inh RFP: further read-out of Ecoli rRNA inh, marked with its call; RFP signal change, %; measured here: RFP humanized mutant strains;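 first replicate; 0 = DMSO median and -100 = no signal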
An asterisk follows results filed as active; ? = inconclusive; . = no result given; & = joins results of further samples.

mol | Beta apoptosis | AF4-AF9 inh | Vif A3G | RanGTP-Imp inh | Ecoli rRNA inh | Ecoli rRNA inh OD600 | Ecoli rRNA inh RFP | Calb FLC | Bfl-1 A1 inh | T cruzi repl
NNc1nc2c(-c3cccc(C(F)(F)F)c3)nnn2c2ccccc12 | 26 | -4.3 | -9% | -0.3 | -6 | 6 | 0.2 | 12 | -2.2 | -2
COc1ccccc1OCCCCn1ncc2ccc(OC)c(OC)c2c1=O | 1 | -1.5 | -8% | 2.6 | -4 | 2 | -0.5 | -22 | 1.1 | 6
CC(C(=O)NCCCc1ccccc1)c1ccc([N+](=O)[O-])cc1 (stereo unspecified) | 5 | -2.5 | 5% | 1.6 | -2 | -4 | -1.2 | -4 | 0.7 | 6
Nn1c(-c2cccc([N+](=O)[O-])c2)nc2ccccc2c1=O | 0 | -5.9 | . | ? | 3 | 9 | -2.5 | 4 | -0.2 | 4
COc1cccc(OCC(=O)NNC(=O)c2ccc(-c3ccccc3)cc2)c1 | . | . | -15% | ? | . | . | . | -5 | 0.3 | 3
COc1ccc(-c2nnc(-c3ccccc3O)o2)cc1 | -4 | -34 | -3% | 1.8 | 14 | 19 | 2.1 | -7 | -7.7 | 4
Cn1c(=O)oc2cc(S(=O)(=O)N3CCCC(C(=O)Nc4ccc5c(c4)OCCO5)C3)ccc21 (stereo unspecified) | 1 | 5.7 | -7% | . | -4 | -9 | 1.2 | . | 0.2 | .
C=Cc1ccc(CN2CCCN(Cc3ccc(Cl)cc3)S2(=O)=O)cc1 | -1 | -0.6 | -8% | 1.5 | 5 | 15 | 0.7 | 5 | -1.4 | -3
CC(OC(=O)c1ccco1)C(=O)Nc1ncc(Cl)cc1Cl (stereo unspecified) | -4 | -1.2 | -5% | . | 2 | 3 | -2.9 | . | 0.7 | .
COc1ccc2c(C(=O)CN3CCN(c4ccccc4)CC3)c[nH]c2c1 | 2 | . | -3% | -5.2 | . | . | . | -3 | -0.3 | -3
COc1cc2c(cc1OC)[C@@H](Cc1ccc(OCCC#N)cc1)N(C)CC2 | -2 | 3.0 | -7% | 1.0 | 14 | 7 | 0.4 | -3 | 0.4 | 7
CC(=O)N(/N=C/c1cccc(C)c1)c1nc(-c2ccc(Br)cc2)cs1 | . | . | 17% | 0.6 | . | . | . | 1 | -0.4 | 12
CCC(C)NC(=O)CSc1nc2c(sc3ccccc32)c(=O)n1CCCN1CCOCC1 (stereo unspecified) | -3 | . | -4% | 4.3 | 5 | 9 | -4.4 | 40 | -0.1 | -30
O=C(NNC(=S)NC(=O)c1ccccc1[N+](=O)[O-])c1ccccc1Cl | 3 | -6.6 | 20% | ? | -1 | 9 | -6.3 | 13 | 0.3 | -10
Cc1ccc(SC(C)C(=O)Nc2ccncc2)cc1 (stereo unspecified) | . | . | 11% | -3.0 | . | . | . | 1 | . | 2
S=c1[nH]nc(C2CCCCC2)n1/N=C/c1ccncc1 | -12 | -6.6 | . | -0.7 | 18 | 8 | 3.7 | 33 | 0.0 | -11
Cc1cccc(C(=O)OCC(=O)NC2CC2)c1O | 3 | -61 | -8% | . | 8 | 1 | 1.6 | . | 0.2 | .
C=CCn1c(CCC(O)COCCC)n[nH]c1=S (stereo unspecified) | -3 | -5.0 | . | 2.4 | 7 | 9 | 0.3 | 16 | -0.1 | -3
O=C(N/N=C/C=C/c1ccco1)C(O)c1ccccc1 (stereo unspecified) | 0 | . | . | 0.7 | . | . | . | 7 | 0.0 | -19
CCCN(C(=O)c1cccc(S(=O)(=O)N2CCN(Cc3ccccc3)CC2)c1)C1CCS(=O)(=O)C1 (stereo unspecified) | 3 | 6.3 | 8% | -1.5 | -1 | 0 | 2.0 | -11 | 0.5 | 6
COc1ccccc1NC(=O)COC(=O)/C=C/c1cccs1 | -5 | -1.9 | . | . | 2 | -5 | -3.8 | . | 0.5 | .
Cc1noc(/C=C/N(C)C)c1S(=O)(=O)N1CCC(C(=O)O)CC1 | -5 | 1.9 | 2% | 8.2 | 11 | 0 | -0.8 | -1 | -0.1 | -14
COc1ccc(CN=C(N)N=C(N)N)cc1Cl | 2 | 0.2 | 9% | -0.8 | 26 | 19 | 4.4 | -16 | -0.7 | -3
COc1cc(/C=N/NC2=NC(C)(C)Cc3ccccc32)cc(OC)c1OC | . | 4.3 | . | -4.8 | 9 | -4 | -0.9 | -18 | -0.6 | 3
Cc1ccc(OCC(O)Cn2c(=N)n(CCN3CCOCC3)c3ccccc32)cc1 (stereo unspecified) | 2 | . | 18% | -0.7 | . | . | . | 3 | 0.1 | 1
CCN(CC)C(=O)CSC(=Nc1ccccc1F)NC#N | -14 | . | 16% | 1.5 | . | . | . | -2 | -0.7 | 0
C=CCn1c(/N=C/c2ccc3c(c2)OCO3)nc2ccccc21 | -5 | . | 3% | 3.6 | . | . | . | 55 | 1.6 | -14
O=C(CC1SC(N2CCCCC2)=NC1=O)Nc1ccc(C(=O)NCc2ccccc2)cc1 (stereo unspecified) | -16 | 0.0 | -6% | . | -5 | 1 | 1.5 | . | 0.3 | .
COc1ccccc1/C=C/C=N/NC(=O)Cc1cccn1C | 2 | 56* | 13% | 0.9 | 3 | 2 | 12 | -36 | 1.2 | -19
O=C(Cn1cc(C(F)(F)F)cc(Cl)c1=O)Nc1cccc(S(=O)(=O)N2CCCCC2)c1 | 0 | 3.8 | 2% | . | 0 | 0 | 3.2 | . | -0.4 | .
COc1cc(/C=C/C(=O)CC(=O)/C=C/c2ccc(O)c(OC)c2)ccc1O | . | 9.7 | . | 13 | . | . | . | . | 0.2 | -24
O=C(CN(c1ccc(F)cc1)S(=O)(=O)c1ccccc1)N1CCOCC1 | -1 | -2.3 | 4% | 0.3 | 9 | 6 | 2.2 | 8 | -0.8 | -17
O=C(Cc1ccc(Nc2nc(=S)[nH]c3ccccc23)cc1)NC1CCCCC1 | -9 | -3.0 | 1% | -0.6 | -2 | -1 | -12 | 1 | 0.2 | 2
O=C(NCCN1CCOCC1)c1cc(S(=O)(=O)Nc2ccccc2F)c(Cl)cc1Cl | -2 | -3.6 | 7% | 0.3 | 14 | 4 | -2.6 | -2 | 0.8 | 10
CN(Cc1ccccc1)C(=O)CCNC(=O)Cn1cnc2ccccc2c1=O | 2 | . | 0%&9% | -2.3 | . | . | . | -3 | -0.4 | 5
CCCCOc1ccc(C(O)(CCN2CCOCC2)c2ccccc2)cc1 (stereo unspecified) | 0 | 3.3 | -7% | -0.2 | 1 | -23 | -2.5 | -7 | 0.1 | -4
O=C(N/N=C/c1ccc[nH]1)c1ccc(O)cc1 | 0 | 4.0 | 25% | 4.0 | 1 | 1 | 1.7 | -1 | 0.2 | -13
COc1cccc(OC)c1C(=O)Nc1c(C(=O)N2CCN(C)CC2)oc2ccccc12 | -2 | -2.2 | . | 0.5 | 6 | 6 | 0.3 | -5 | -0.6 | -10
COc1ccc(CN2CCNC(=O)C2CC(=O)NC2CCOCC2)c(F)c1 (stereo unspecified) | -9 | -2.4 | . | -3.4 | 4 | 5 | 0.2 | -3 | 0.3 | -12
COc1ccc(C)cc1NC(=O)CN(c1ccc(F)cc1)S(C)(=O)=O | 1 | . | 3% | 2.9 | . | . | . | 6 | 1.0 | 19
c1ccc(-c2nnc(C3CC(c4ccncc4)=NO3)o2)cc1 (stereo unspecified) | 0 | -0.9 | . | ? | 4 | 9 | -7.9 | -12 | -0.3 | -14
CCCCCCCCSc1nnc(-c2ccc(OC)cc2)o1 | 0 | . | 2% | 2.7 | . | . | . | 1 | 0.1 | -4
Cc1ccc(NS(=O)(=O)c2ccc(C(=O)NCCCN3CCCC3=O)cc2)cc1C | 6 | -5.3 | 2% | 3.3 | 4 | -4 | -0.8 | 2 | 1.1 | -17
C/C(=N\NC(=O)C1(C)CC1(Br)Br)c1cccc(NC(=O)C2CCC2)c1 (stereo unspecified) | -6 | 3.7 | -3% | -1.5 | -13 | -2 | -5.9 | -16 | -0.3 | 0
Nc1nnc(SCC(=O)Nc2ccc3nc(SCC(=O)Nc4ccccc4)sc3c2)s1 | -5 | . | 15% | -1.0 | . | . | . | -33 | 0.0 | 1
COc1ccc(-n2nnnc2SCC(=O)N2CCCC2)cc1OC | -24 | . | 1% | -3.4 | . | . | . | -7 | 0.7 | -14
COc1cc(C(=O)OCC(=O)N2CCCC2=O)cc(OC)c1C | -4 | -1.5 | . | . | 4 | 0 | 1.1 | . | -0.6 | .
CC(=O)Nc1ccc(S(=O)(=O)Nc2ccc(-n3cnnn3)cc2)cc1 | -5 | 0.9 | -1% | . | 1 | 3 | -4.0 | . | 1.2 | .
Cc1[nH]n(-c2ccccc2)c(=O)c1/C=N/NC(=O)c1ccccc1F | . | 0.6 | -1% | 0.1 | -15 | -24 | -1.8 | -26 | 0.3 | -11
CN(C)/C(Cn1cncn1)=C1/N=C(c2c(F)cccc2F)OC1=O | -2 | 1.0 | -15% | ? | 13 | 8 | -1.9 | 0 | -0.8 | -8

(list continues)
mol | Beta apoptosis | AF4-AF9 inh | Vif A3G | RanGTP-Imp inh | Ecoli rRNA inh | Ecoli rRNA inh OD600 | Ecoli rRNA inh RFP | Calb FLC | Bfl-1 A1 inh | T cruzi repl
Cc1oc(-c2ccc(Cl)cc2)nc1CN1CCC(C(=O)NCc2cccs2)CC1 | -1 | . | -9% | 0.0 | . | . | . | 17 | 0.1 | 20
Cc1ccc(C(=O)Nc2ccc(Cl)cc2C)c(Cl)c1 | 5 | -1.1 | . | 3.9 | 1 | -2 | 0.1 | ? | -1.7 | -10
C=CCn1c(=O)c2c(nc3n2CC(C)CN3c2cccc(OC)c2)n(C)c1=O (stereo unspecified) | 5 | -8.2 | 0% | ? | 0 | -3 | -0.8 | -1 | 0.5 | 11
Cc1ccc(S(=O)(=O)N2CCSC2C(=O)O)cc1 (stereo unspecified) | -7 | . | -5% | 1.3 | 4 | 8 | -4.7 | -2 | -0.1 | 2

The list is partial (hit frequency here may not be typical).
